RE007 growth inh: less growth of the S. pombe RE007 Vpr strain; S. pombe RE007 Vpr strain, BacTiter-Glo ATP luminescence, 24 h; control for the full effect not named in the record; Potency, µM (highest dose often 92.2 µM), for inactives: top-dose activity change, negative = less growth; 0.21% of 360,000 active; AID 651644; active = well fitted falling curve with a large enough effect; inconclusive = small, poorly fitted or top-dose-only effect; inactive = no such curve, though single readings can be large or run the other way;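 further: on the % scale 0 is the no-effect control and ±100 the full control effect; nearly all actives have a fitted effect of over 50% in size; the assay follows cell death caused by Vpr and the record does not say whether a fall means rescue or toxicity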
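Fission yeast RE007 carrying one integrated HIV-1 vpr copy, seeded at OD 0.01 in PMG+AL medium with 23 nL pinned compound. Grown 24 h at 30 degrees; viability read by BacTiter-Glo luminescence after 5 min.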
StopGo reporter: lowers the luciferase signal of an FMDV 2A StopGo reporter; Potency, µM (doses to about 57.9 µM), without a hit: at the highest dose signal change, negative = less light; 1.2% of 410,000 active; human cells with a luciferase reporter of 2A StopGo recoding; control for the full effect not named in the record; active = well fitted falling curve with a large enough effect; inconclusive = small, poorly fitted or top-dose-only effect; inactive = no such curve, though single readings can be large or run the other way; tested in HEK293T cells; further: on the % scale 0 is the no-effect control and ±100 the full control effect; nearly all actives have a fitted effect of over 45% in size; luciferase light after 4 h
SARS PLpro yeast: inhibitors of SARS-CoV papain-like protease in yeast | S. cerevisiae expressing SARS-CoV PLpro, growth rescue; control for the full effect not named in the record | Potency, µM (titrated, usually from 32.9 µM), inactives show at the highest dose activity, positive = growth rescue | 0.19% of 330,000 active | AID 485353; active means well fitted rising curve with a large enough effect; inconclusive means small, poorly fitted or top-dose-only effect; inactive means no such curve, though single readings can be large or run the other way; further: 0% is about no effect; nearly all actives have a fitted effect of over 55% in size; growth read by luminescence after 48 h
The depositor's hits bear a star; ? = inconclusive; [ ] = another dose, or the depositor's remark. Potency means the concentration at half of the fitted maximal effect.

SMILES	RE007 growth inh	StopGo reporter	SARS PLpro yeast
CC1CCN(c2ccc3c(c2)S(=O)(=O)c2cccc(C(=O)NCc4cccc(F)c4)c2C3=O)CC1	6%	21%	-2%
CCn1c(SC(C)C(=O)Nc2ccc(N3CCOCC3)cc2)nnc1C1CC1 (stereo not drawn)	14%	-11%	-3%
O=C(NC1=NCCS1)c1cccc(N2C(=O)c3ccccc3C2=O)c1	15%	-4%	-3%
COc1ccccc1CNC(=O)COC(=O)CNS(=O)(=O)c1ccc(NC(C)=O)cc1	-8%	5%	3%
CCCCNc1ccc(C(F)(F)F)cc1S(=O)(=O)NCCc1ccc(F)cc1	-10%	-13%	-40%
NC(=O)c1cc([N+](=O)[O-])ccc1NCc1ccc(N)cc1	-8%	8.9µM*	4%
COC(=O)C1=C(c2ccc(-c3ccccc3)c(F)c2)C[C@@H]2CC[C@H]1N2C(=O)NCc1ccc(F)cc1	16%	?	3%
CCN1C(=O)[C@H]2[C@@H](c3ccc(C)cc3)N3C(=O)N(c4cccc(Br)c4)C(=O)[C@@]3(CC)[C@H]2C1=O	0%	-4%	5%
CCN(CC)c1ccc(NC(=O)COC(=O)CCC(=O)c2cccs2)cc1	-11%	-8%	3%
C[C@H](CO)N1C[C@H](C)[C@@H](CN(C)C(=O)Nc2ccc3c(c2)OCO3)Oc2c(NS(=O)(=O)c3ccc(F)cc3)cccc2C1=O	22%	42%[activator]	3%
CCS(=O)(=O)N1Cc2ccccc2CC1C(=O)Nc1ccc(OC)cc1 (stereo not drawn)	9%	18%	-2%
O=C(C[C@H]1C/C=C\C[C@H](NC(=O)OCC2c3ccccc3-c3ccccc32)C(=O)OC[C@H]2CCCN2C1=O)NCCO	7%	-14%	4%
COc1cc(C[C@@H]2C(=O)OC[C@H]2Cc2ccc(OC)c(OC)c2)ccc1O	0%	20µM*	2%
N#Cc1ccc(NC(=O)CN2C(=O)NC3(CCCCCCC3)C2=O)cc1Cl	-5%	0%	6%
COc1ccc(OC)c(NC(=O)CN2C(=O)NC(C)(c3ccc4c(c3)OCCO4)C2=O)c1 (stereo not drawn)	-3%	-17%	3%
CCNC(=O)NC(=O)C(C)OC(=O)c1cccn1C (stereo not drawn)	15%	9%	0%
CCC(CC)CN1C(N(C)C)=NC[C@@H]1CC(C)C	-22%	-9%	-1%
Nc1cc(=O)[nH]c(SCC(=O)Nc2ccc(N3CCCCC3)cc2)n1	6%	-13%	-3%
C=CC[C@@H](Cc1ccc(F)cc1)C(=O)OC[C@@H]1CCCN1C(=O)[C@H](CC=C)CC(=O)N[C@H](CO)Cc1ccccc1	-5%	?	-20%
CSCCC(NC(=O)c1ccccc1Cl)C(=O)N1CC(C)OC(C)C1 (stereo not drawn)	9%	0%	-7%
C#CCOCCOCCOCCNc1nc(N2CCN(C(=O)Cn3cc(CCCCN)nn3)CC2)nc(N2CCN(C(=O)[C@H]([C@@H](C)CC)n3cc(CCCN=C(N)N)nn3)CC2)n1	-8%	-6%	4%
CCCCn1c(N)c(N(CC(C)C)C(=O)c2ccc([N+](=O)[O-])o2)c(=O)[nH]c1=O	6%	-11%	7%
COc1ccccc1CNC(=O)COc1ccc(C)nc1[N+](=O)[O-]	7%	-11%	-6%
CC(C)(C)OC(=O)N[C@@H](C(=O)OC(C)(C)C)c1ccc(Br)cc1	-1%	-6%	-3%
O=S(=O)(NCc1ccccc1)[C@@H]1CC2C=CC1C2 (stereo partly drawn)	7%	2%	-18%
O=S(=O)(NC1=NCCCCC1)c1ccc(Cl)cc1Cl	-10%	3%	0%
CCCSc1ccc([C@@H]2[C@H]3C(=O)N(C)C(=O)[C@H]3[C@]3(C(=O)OC)CCCN23)cc1OC	-1%	0%	-18%
COc1ccc(NC(=O)Nc2cccc3c2O[C@H](CN(C)C(=O)Nc2ccc(OC)cc2)[C@@H](C)CN([C@H](C)CO)C3=O)cc1	7%	13%	4%
Cc1ccc2c(c1)C(=O)N1[C@H]3c4cc(Cl)ccc4OC[C@@H]3[C@H](c3ccccc3)[C@]1(C)C(=O)N2	30%	0%	-48%
O=C(c1cccc(S(=O)(=O)N2CCCCC2)c1)N1CCN(Cc2ccccc2)CC1	-8%	17%	1%
CN1CC[C@]23c4c5ccc(OC6OC(C(=O)O)[C@@H](O)C(O)[C@H]6O)c4OC2C(O)C=CC3[C@H]1C5 (stereo partly drawn)	-9%	-25%	-6%
COc1ccc(-c2nn(-c3ccccc3)cc2C(=O)NC2CC2)cc1	-17%	19%	1%
COc1ccccc1C(=O)NC(=S)Nc1ccc(N2CCOCC2)c(Cl)c1	-3%	-5%	-3%
CC(=O)c1cccc(NC(=O)COc2cc(C)on2)c1	6%	-9%	9%
C[C@H](CO)N1C[C@H](C)[C@@H](CN(C)S(C)(=O)=O)Oc2ccc(NS(=O)(=O)c3ccccc3)cc2C1=O	9%	-4%	0%
CC(Oc1ccccc1)C(=O)Nc1nc(-c2ccncc2)cs1 (stereo not drawn)	-3%	-1%	-5%
O=C(NCc1ccccc1)c1cccc2c1C(=O)c1ccc(/C=C/c3ccccc3)cc1S2(=O)=O	5%	-12%	-1%
Cc1ccc(NC(=O)CN(C)C(=O)COc2ncnc3ccc(Br)cc23)cc1	?	-10%	3%
OCC[C@H]1C[C@@H](O)[C@H](O)[C@]2(OCCc3ccccc32)O1	1%	5%	-1%
COC(=O)c1cc(C)nc2c1c(C)nn2-c1ccccc1	-5%	8%	2%
COc1ccccc1/C=C/C(=O)OCC(=O)Nc1c(C)nn(-c2ccccc2)c1C	10%	-26%	-3%
COc1ccc([C@@H]2CC=C(C(=O)O)[C@H](c3ccccc3F)N2S(=O)(=O)c2ccccc2C)cc1	-7%	25%	4%
c1ccc(C[C@H]2CNCCN2CCC23CC4CC(CC(C4)C2)C3)cc1	11%	?	7%
CC(C)[C@H](NC(=O)c1ccccc1)C(=O)OCC(=O)NCC1CCCO1 (stereo partly drawn)	-12%	-13%	-12%
Cc1nn(C2CCS(=O)(=O)C2)c(C)c1CN(C)C(=O)c1ccc(S(=O)(=O)N(C)C)cc1 (stereo not drawn)	-5%	-12%	-2%
COc1ccc(NC(=O)CN(C)CC(=O)N(CC(C)C)c2c(N)n(CC(C)C)c(=O)[nH]c2=O)cc1	6%	-18%	1%
O=S(=O)(c1ccccc1)[C@@]1(c2ccccc2)C[C@@H]2ON=C(c3cccc(Br)c3)[C@@H]2C1	3%	-17%	-1%
Oc1ccccc1N=Nc1ccccc1O	-36%	56%[activator]	-24%
COc1ccc(NS(=O)(=O)c2cc(N)ccc2N2CCCCC2)cc1	-7%	15%	5%
CC(Cc1c[nH]c2ccccc12)NC(=O)OCCCl (stereo not drawn)	-24%	-21%	-1%
CCCN(CC(=O)Nc1ccccc1OC)C(=O)c1cc(-c2ccccc2)nn1-c1ccccc1	4%	-21%	-5%
O=C(CNC(=O)c1ccc(OC(F)F)cc1)NCC1(N2CCOCC2)CCCCC1	-4%	-11%	-5%
C[C@]12c3[nH]c4ccccc4c3CCN1C(=O)C(CC(=O)NCc1cccc(C(F)(F)F)c1)C[C@@H]2C(=O)N1CCCCC1 (stereo partly drawn)	6%	-25%	?
CC1CC(C)CN(C(=O)CSc2nc(N)cc(=O)[nH]2)C1 (stereo not drawn)	-1%	-14%	-1%
COc1cc(NC(=O)CN2C(=O)c3ccccc3S2(=O)=O)cc(OC)c1	-9%	-11%	-4%
CCCCCCc1cc2cc(/C(N)=N/NC(=O)c3ccncc3)c(=O)oc2cc1O	-3%	-21%	2%
COc1ccc([C@H]2CC(=O)C=C(c3ccc(NC(C)=O)cc3)C2)cc1OC	6%	-20%	-6%
CCN(C(=O)CN1CCc2ccccc21)c1c(N)n(Cc2ccccc2)c(=O)[nH]c1=O	27%	6%	4%
CCCC(=O)Nc1ccc(C(=O)COC(=O)c2cc(C)oc2C)cc1	-2%	8%	2%
Cc1ccc(-n2nnnc2SCC(=O)N2CCNC2=O)cc1C	4%	24%	0%

Some of the entries so far, in markdown:
| SMILES | RE007 growth inh | StopGo reporter | SARS PLpro yeast |
| --- | --- | --- | --- |
| CCN(C(=O)CN1CCc2ccccc21)c1c(N)n(Cc2ccccc2)c(=O)[nH]c1=O | 27% | 6% | 4% |
| COc1cc(NC(=O)CN2C(=O)c3ccccc3S2(=O)=O)cc(OC)c1 | -9% | -11% | -4% |
| Cc1ccc(-n2nnnc2SCC(=O)N2CCNC2=O)cc1C | 4% | 24% | 0% |
| CCCCCCc1cc2cc(/C(N)=N/NC(=O)c3ccncc3)c(=O)oc2cc1O | -3% | -21% | 2% |
| O=C(CNC(=O)c1ccc(OC(F)F)cc1)NCC1(N2CCOCC2)CCCCC1 | -4% | -11% | -5% |

Additional records.
SMILES	RE007 growth inh	StopGo reporter	SARS PLpro yeast
CCn1cc(CNC(=S)Nc2cccc3ccccc23)cn1	-15%	9%	0%
O=C(NCCc1ccc(Cl)cc1Cl)C1=CC=CN2CCS(=O)(=O)N=C12	-3%	16%	-5%
COc1cc(SC)ccc1C(=O)N1CCN(S(=O)(=O)/C=C/c2ccccc2)CC1	12%	?	-6%
CC(OC(=O)CN1C(=O)c2ccccc2C1=O)C(=O)NC1(C#N)CCCCC1 (stereo not drawn)	-3%	-18%	2%
Cc1ccc(S(=O)(=O)N(C)S(=O)(=O)c2ccc(C)cc2)cc1	12%	-17%	8%
COc1cccc(NC(=O)CN(C)C(=O)CSc2nc(C)cc(C)n2)c1	-19%	-9%	2%
O=C(COC(=O)C(c1ccccc1)c1ccccc1)NCc1ccco1	2%	-12%	2%
CCOc1ccc(NS(=O)(=O)c2cccc(C(=O)N(C)Cc3ccco3)c2)cc1	-2%	25%	-2%
O=C(NCc1ccccn1)c1ccc(Cl)c(S(=O)(=O)NCc2ccccc2)c1	2%	71%[activator]	-4%
Cc1noc(C)c1C(=O)NCC1COc2ccccc2O1 (stereo not drawn)	11%	3%	-1%
CC(C)NC(=O)N(C)C[C@H]1Oc2c(NC(=O)C3CCCCC3)cccc2C(=O)N([C@H](C)CO)C[C@@H]1C	2%	49%[activator]	3%
NC(=O)c1ccc(-c2nnn(CC(=O)N(C3CCCC3)C3CCS(=O)(=O)C3)n2)cc1 (stereo not drawn)	6%	-19%	-1%
O=C(COC(=O)c1ccco1)Nc1cc(S(=O)(=O)N2CCCCC2)ccc1Cl	1%	-9%	1%
CCc1nnc(NC(=O)c2ccc3ccccc3n2)s1	-7%	65%[activator]	2%
CC(C)c1ccc(C(N)=S)cc1	-6%	37%[activator]	0%
CC(=O)c1ccc(S(=O)(=O)Nc2ccc(-n3cnnn3)cc2)cc1	14%	35%[activator]	1%
CCN(C(=O)COC(=O)CN1C(=O)c2ccccc2C1=O)c1ccccc1	-4%	-22%	1%
NC(=O)c1cc2ccccc2o/c1=N/NC(=O)c1cccs1	8%	0%	-2%
O=C1C=C(c2ccc3ncccc3c2)C[C@@H](c2ccc3c(c2)OCO3)C1	-10%	-23%	-10%
COc1ccc(C(C(N)=O)c2ncc(C(F)(F)F)cc2Cl)cc1 (stereo not drawn)	5%	4%	1%
CCOC(=O)c1ccc(Oc2ccc(C(F)(F)F)cn2)cc1	-5%	38%[activator]	2%
CC(NC(N)=O)C(=O)OCC(=O)c1ccc(-c2ccccc2)cc1 (stereo not drawn)	-13%	19%	-1%
O=C(CN1CCN(c2ccc(F)cc2)CC1)Nc1ccccc1C(=O)NCCc1ccccc1	-3%	-8%	-2%
COc1cc(C#Cc2c(-c3cncn3C)n(C)c3ccc(-c4cnc(N5CCOCC5)nc4)cc23)cc(OC)c1	-22%	20%	-1%

Individual results from the entries so far:
COc1ccc(C(C(N)=O)c2ncc(C(F)(F)F)cc2Cl)cc1 (stereo not drawn) in SARS PLpro yeast: 1%
O=C(COC(=O)c1ccco1)Nc1cc(S(=O)(=O)N2CCCCC2)ccc1Cl in StopGo reporter: -9%

An excerpt from above in order of SMILES length, low to high:
SMILES	RE007 growth inh	StopGo reporter	SARS PLpro yeast
CC(C)c1ccc(C(N)=S)cc1	-6%	37%[activator]	0%
NC(=O)c1cc2ccccc2o/c1=N/NC(=O)c1cccs1	8%	0%	-2%
CC(=O)c1ccc(S(=O)(=O)Nc2ccc(-n3cnnn3)cc2)cc1	14%	35%[activator]	1%
O=C1C=C(c2ccc3ncccc3c2)C[C@@H](c2ccc3c(c2)OCO3)C1	-10%	-23%	-10%
COc1cc(C#Cc2c(-c3cncn3C)n(C)c3ccc(-c4cnc(N5CCOCC5)nc4)cc23)cc(OC)c1	-22%	20%	-1%

Assay outcomes as filed in PubChem BioAssay.

This is a subset. The share of hits here may be higher or lower than overall.
